# FGF22 binding: binders of human FGF22 protein, primary screen, FGF22 synaptogenesis inhibitor project, biophysical, thermal shift, single point. Fibroblast growth factor 22 (Homo sapiens), Q9HCT0. recombinant FGF22 thermal shift, SYPRO orange fluorescence; percent of sucrose octasulfate shift, DMSO zero. calls only at 9.99 µM. 340,000 compounds, 1.5% hits. AID 651658, 2012;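 active = melting point raised past a set limit in the mean and every replicate; inconclusive = no clear call; three in four hits are not shown here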
# HNF4A DNA FP: change in binding of human HNF4A to DNA, primary screen, biochemical, fluorescence polarization, FITC-DNA | 360,000 compounds, 0.3% hits | activity change, % at 10 µM | 1 h; in the data active = activity change above about 30%, passing the limit was not always enough;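 note: controls were the assay level and a saturating level of protein; the project sought stronger binding though the title names inhibitors; some compounds called inactive have numbers as strong as hits; positive values seem to mean higher polarization but the record does not say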
# Target sequence (P41235 whole entry, looked up): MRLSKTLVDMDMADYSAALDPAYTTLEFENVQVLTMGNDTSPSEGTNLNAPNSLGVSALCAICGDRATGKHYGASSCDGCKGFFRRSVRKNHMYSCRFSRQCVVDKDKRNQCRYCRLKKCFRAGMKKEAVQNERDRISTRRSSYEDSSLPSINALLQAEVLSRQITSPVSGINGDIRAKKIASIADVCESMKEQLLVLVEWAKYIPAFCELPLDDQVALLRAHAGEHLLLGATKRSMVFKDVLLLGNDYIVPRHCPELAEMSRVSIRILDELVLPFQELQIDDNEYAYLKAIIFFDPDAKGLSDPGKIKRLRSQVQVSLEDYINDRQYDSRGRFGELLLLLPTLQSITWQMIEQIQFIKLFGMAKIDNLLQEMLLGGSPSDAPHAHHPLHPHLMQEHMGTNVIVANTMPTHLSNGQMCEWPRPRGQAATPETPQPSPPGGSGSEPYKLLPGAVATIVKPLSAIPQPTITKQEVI
# RanGTP-Imp inh: inhibitors of RanGTP-importin-beta interaction, primary screen, biochemical, FRET, CFP-Ran, YFP-importin-beta, homogeneous; Ran GTPase (GTP-bound) - importin-beta complex; AID 2216, 2009; 300,000 compounds, 1.1% hits; inhibition, % (no concentration beside the values); cell-free CFP-Ran/YFP-importin-beta FRET ratio;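 active = most replicates above 15%; inconclusive = exactly half above 15%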;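 note: 0% = DMSO wells and 100% = Ran loaded with GDP instead of GTP; wells of about 40 µL received 100 nL stock; the first replicate is given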
# Vif TR-FRET: inhibitors of Vif binding to APOBEC3G peptide, primary screen, biochemical, TR-FRET, GST-Vif 1-94, biotin-A3G peptide, dose response retest (AID 1117319); Virion infectivity factor (Human immunodeficiency virus type 1 group M subtype B (isolate …; TR-FRET GST-Vif / biotin-A3G peptide binding; higher % means a stronger effect; test concentration not given here; strong numbers were not always called active; inhibition, %; hits with a dose series show IC50 in µM; 260,000 compounds, 0.57% hits;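 active = above the screen mean plus three standard deviations and confirmed in dose response; inconclusive = results disagree or hit not tested in dose response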;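 note: Vif residues 1-94 fused to GST binding biotinylated APOBEC3G peptide 110-148; 0% = full assay without inhibitor and 100% = GST in place of GST-Vif; retest series ran down from 100 µM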
# MLL AF4-AF9 inh: inhibitors of AF4 peptide binding to AF9, primary screen, biochemical, AlphaScreen, biotin-AF4 peptide, FLAG-AF9, single point. Protein AF-9 (Homo sapiens), P42568. inhibition, % at 10 µM. 350,000 compounds, 0.47% hits. AID 651704, 2012;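 active = every replicate reaching a set inhibition limit, whatever the replicate mean, cut at about 25% in these data; inconclusive = mean inhibition reaches that limit but some replicates miss it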;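 note: 0% = plate neutral control median and 100% = total signal loss; the record names both 10 and 1 µM as test concentration; the first replicate is given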
# Target sequence (P42568 whole entry, looked up): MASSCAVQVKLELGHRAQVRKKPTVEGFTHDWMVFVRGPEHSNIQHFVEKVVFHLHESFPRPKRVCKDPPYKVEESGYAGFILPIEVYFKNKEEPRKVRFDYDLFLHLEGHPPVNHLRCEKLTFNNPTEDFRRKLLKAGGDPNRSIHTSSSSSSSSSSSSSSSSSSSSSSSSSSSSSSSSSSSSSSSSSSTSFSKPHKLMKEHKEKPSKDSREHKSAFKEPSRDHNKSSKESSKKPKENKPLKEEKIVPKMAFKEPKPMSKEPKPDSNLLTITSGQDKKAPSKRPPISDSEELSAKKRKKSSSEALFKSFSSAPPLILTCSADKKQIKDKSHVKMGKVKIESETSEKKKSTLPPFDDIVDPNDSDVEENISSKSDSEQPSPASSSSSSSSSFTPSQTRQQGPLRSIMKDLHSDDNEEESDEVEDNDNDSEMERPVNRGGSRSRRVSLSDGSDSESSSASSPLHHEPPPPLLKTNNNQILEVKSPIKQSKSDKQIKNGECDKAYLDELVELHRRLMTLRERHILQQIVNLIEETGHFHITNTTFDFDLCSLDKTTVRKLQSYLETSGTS
# Ecoli growth: E. coli growth inhibition, primary screen, OD600; Escherichia coli growth, 23 h; stronger effect = lower value; 330,000 compounds, 0.21% hits; OD600 absorbance (test concentration not listed);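 active = OD600 absorbance below the run mean of sample wells minus 3.6 SD, in any replicate, cut at about 0.56 in these data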;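 note: stock transfer was 300 nL into about 60 µL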
# UCH37 DUB inh: inhibitors of human UCH37 deubiquitinase, primary screen, biochemical, Ub-AMC cleavage, fluorescence. Ubiquitin carboxyl-terminal hydrolase isozyme L5 (Homo sapiens), Q9Y5K5. purified proteasome/UCH37. 330,000 compounds, 0.33% hits. inhibition, % (no concentration beside the values). AID 588478, 2011;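 active = mean of two replicates above 20%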;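 note: 0% = compound-free wells with enzyme and 100% = wells lacking proteasome; stock transfer was 100 nL into about 20 µL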
#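 Signal – fluorescence, ex 355 nm, em 460 nm · System – Proteasome-bound UCH37 · Input – 0.15 nM proteasome as dispensed · Timing – 30 min preincubation with enzyme, 25 min cleavage at room temperature · Read-out basis – percent inhibition of cleavage signal versus uninhibited and no-proteasome wells · Medium – Tris-HCl pH 7.4 with ATP-MgCl2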
# * = called active by the depositor; i = inactive; ? = inconclusive; . = not tested or not shown; & = joins results of further samples. Not all compounds are listed. The share of hits here may be higher or lower than overall.
SMILES,FGF22 binding,HNF4A DNA FP,RanGTP-Imp inh,Vif TR-FRET,MLL AF4-AF9 inh,Ecoli growth,UCH37 DUB inh
CCOc1ccc(S(=O)(=O)n2nnc3ccccc32)cc1C,.,.,2.4,3.8%,.,0.783,5.8
Cc1ccc2nc(NC(=O)CCNS(=O)(=O)c3cccs3)sc2c1,.,0.2,-2.4,-1.4%,.,0.692,-0.7
CN1CCN(/N=C/c2c3ccccc3c(Cl)c3ccccc23)CC1,i,-48.4,-4.1,-3.1%,25.3*,.,.
CC(C)C1CC(CCN2CCCCC2)(c2ccccc2)CCO1 (stereo not drawn),i,-2.4,-2.2,.,-0.1,0.698,5.0
O=C(CCC1COc2ccccc2O1)Nc1cccnc1 (stereo not drawn),.,0.5,-5.8,-3.1%,.,0.722,4.0
COCc1nnc(SCC(=O)Nc2cccc(Cl)c2C)n1-c1ccccc1,.,-0.1,6.8,5.5%,.,0.636,-2.7
COc1ccccc1N1CCN(CCCNC(=O)Nc2ccccc2)CC1,.,-1.8,-1.6,15.0%,.,0.671,1.3
CN(Cc1ccccn1)Cc1nc(-c2ccc(Cl)cc2)no1,i,10.5,5.4,.,1.5,0.646,-1.4
COc1ccc(CN(C)C(=O)c2ccc(NC(=O)CC3SC(N4CCCCC4)=NC3=O)cc2)c(OC)c1 (stereo not drawn),i,1.7,.,.,0.9,0.601,2.1
COc1ccc(NC(=O)c2c(NC(=O)CNCc3ccco3)sc3c2CCC3)cc1,.,-1.0,-0.7,-6.1%,.,0.759,-9.0
Cc1[nH]n(-c2ccccc2)c(=O)c1N=O,i,3.0,6.2,5.4%,-2.1,0.653,6.1
CC1(C(=O)NS(=O)(=O)c2cccc(Cl)c2)CCN1C(=O)Cc1ccc(Cl)cc1Cl (stereo not drawn),i,2.1,.,.,-0.8,.,.
Cc1cccc(CN2CCN(C3CN(CCc4ccccc4)S(=O)(=O)C3)CC2)c1 (stereo not drawn),i,0.1,.,.,1.9,.,.
COc1ccc(Cl)cc1C(=O)NNC(=O)C1CCCO1 (stereo not drawn),i,0.3,.,.,-14.3,0.648,-2.8
Cc1ccc(NC(=O)CN2C(=O)S/C(=C\c3cccn3C)C2=O)cc1,i,7.5,-3.7,21.5%,10.4,0.712,-0.6
COc1ccc(S(=O)(=O)N(C)C)cc1NC(=O)c1ccc(OCC(=O)N2CCOCC2)c(OC)c1,i,-1.0,-4.7,-1.5%,-11.0,0.693,1.3
CCOC(=O)C1CCN(CCC(=O)Nc2ccc(C)c(C)c2)CC1,.,1.2,4.7,2.5%,-0.4,0.658,0.6
COc1ccc(S(=O)(=O)N2CCC(C(=O)NC3CCCCC3C)CC2)cc1 (stereo not drawn),i,-2.8,1.4,-0.6%,0.1,0.717,4.8
COCCCn1c(SCC(=O)n2c(C)c(C)c3ccccc32)nnc1-c1ccoc1C,.,5.8,-0.2,18.8%,.,0.729,4.7
OC(COCCC12CC3CC(CC(C3)C1)C2)CN1CCCC1 (stereo not drawn),i,-4.4,-2.4,.,0.7,0.624,-1.7
CCOc1cc(-c2nnn(CC(=O)N3CCCCC3)n2)ccc1OC,i,1.6,-5.0,-6.0%,1.9,0.698,0.2
C[C@@H]1O[C@@H]1P(=O)(O)O,i,1.8,.,.,-0.7,.,0.9
CCC(=O)Nc1cccc(C2=NOC3(C2)C[C@@H](C(N)=O)N(C(=O)c2ccccc2C(=O)c2ccccc2)C3)c1 (stereo partly drawn),.,-0.8,1.2,6.4%,.,.,2.6
COc1ccc(-c2ccc(-c3noc(C)n3)c(OC)n2)cc1,.,-1.3,-0.3,-41.4%,.,0.693,-144.7
C[C@H](CO)N1C[C@H](C)[C@H](CN(C)C(=O)Nc2ccccc2F)OCc2cnnn2CCCC1=O,i,-4.9,.,-1.3%,-0.8&-1.0,.,.
COC(=O)CSc1nnc(C2COc3ccccc3O2)n1-c1ccccc1 (stereo not drawn),i,-1.9,1.7,-1.0%,5.4,0.663,6.3
Cc1cccn2c(=O)c3cc(C(=O)NCCc4ccccc4)c(=N)n(CCCn4ccnc4)c3nc12,.,-2.1,177.8*,1.6%&3.1%,.,0.751,-77.9
CCOc1ccccc1C(=O)Nc1ccccc1-c1ccccc1,.,-1.6,-2.0,.,.,0.734,4.9
O=[N+]([O-])c1ccc(COc2cccc3cccnc23)cc1,i,4.6,-4.9,-2.4%,-20.9,0.646,-0.6
CCN(C(=O)CN1C(=O)NC(CCSC)C1=O)C1CCS(=O)(=O)C1 (stereo not drawn),i,1.9,.,-6.6%,0.9,0.68,0.4
Cc1cc(=O)oc2cc(OC(C)C(=O)NCCc3ccc(S(N)(=O)=O)cc3)ccc12 (stereo not drawn),i,-0.9,3.5,.,-0.8,0.66,-30.8
CCC(C)Cn1cnc2c(SCc3ccccc3F)nc(N)nc21 (stereo not drawn),i,3.7,.,-3.6%,-1.4,0.694,2.5
NS(=O)(=O)c1ccc(NC(=S)N2CCC(Cc3ccccc3)CC2)cc1,i,0.4,-3.5,-7.5%,2.5,0.632,2.0
Cc1cccc(NC(=O)CSc2nc3c(c(=O)[nH]2)CCCC3)c1C,.,1.9,-3.0,4.3%,.,0.67,2.7
CC(OC(=O)c1ccccn1)C(=O)Nc1nc(-c2ccc(F)c(F)c2)cs1 (stereo not drawn),i,-1.3,.,0.0%,4.2,0.682,2.6
CC1(c2ccccc2)NC(=O)N(CC(=O)NC(=O)NCc2ccco2)C1=O (stereo not drawn),.,3.2,-3.1,13.9%,.,0.807,1.9
CN1C(=O)CSc2ccc(NC(=O)N3CCOCC3)cc21,.,3.4,0.2,5.9%,-0.1,0.711,5.1
COCCNC(=O)C(OC(=O)c1ccco1)c1ccccc1F (stereo not drawn),i,-1.1,?,?,-1.6,0.646,5.4
COc1ccccc1NS(=O)(=O)c1cc([N+](=O)[O-])ccc1N/N=C/c1c[nH]c2ccccc12,.,71.7*,4.0,-1.8%,.,.,.
CN(c1ccccc1)S(=O)(=O)c1cccc(C(=O)NC2CCCC2)c1,i,-2.2,.,-4.7%,5.8,0.668,-2.0
COc1ccc2c(=O)c(C(=O)NCCc3ccc(OC)c(OC)c3)c[nH]c2c1,.,5.3,-0.4,23.3%,.,0.67,-0.7
CCNC(=O)NC1c2ccccc2CSc2ccccc21 (stereo not drawn),.,-4.7,1.2,.,-3.1,0.624,2.0
CCOc1cc(C(N)=O)cc(Cl)c1OCc1ccccc1,i,-0.7,4.0,-9.9%,-1.5,0.663,7.1
CC(NC(=O)C1CC(=O)N(c2ccc3c(c2)OCCO3)C1)c1ccccc1 (stereo not drawn),i,1.3,.,0.1%,4.6,.,.
COc1ccc(N(C(=O)c2snc(C(N)=O)c2N)C(CC(C)C)C(=O)NCC2CCCO2)cc1 (stereo not drawn),i,1.0,-4.4,.,4.5,0.652,-6.0
Cc1cc(SCn2nnc3ccccc3c2=O)nc2ccccc12,i,0.6,8.2,-5.2%,-6.8,0.726,0.9
O=C(NCCC1=CCCCC1)C1CCC(=O)N(Cc2cccc(C(F)(F)F)c2)C1 (stereo not drawn),i,-1.0,-0.4,.,-0.5,0.673,11.9
CC(C)[C@H](NC(=O)N1CC(=O)Nc2ccccc21)C(=O)N1CCC[C@@H]1C(=O)O,i,0.6,-0.6,.,-0.5,0.764,-0.4
CC1(C)C(C=C(Cl)Cl)C1C(=O)N/N=C/c1ccccc1F (stereo not drawn),i,2.4,4.7,.,7.5,.,.
CCn1c(=O)c(C(=O)NNS(=O)(=O)c2ccc(C)cc2)c(O)c2ccccc21,.,-2.6,3.7,.,.,0.667,2.3
CC(=O)N1N=C(c2cccs2)CC1c1ccc(C)o1 (stereo not drawn),i,3.7,?,.,2.9,0.681,2.0
O=C1C=C(c2ccccc2)CC(c2ccc(F)cc2)C1 (stereo not drawn),i,0.4,1.3,.,4.0,0.688,2.3
c1ccc(-c2oc3ncnc(NCCCN4CCOCC4)c3c2-c2ccccc2)cc1,.,1.0,6.2,26.4%,.,0.677,-44.0
COc1ccc(C2OC3=C(Nc4cc(C)c(C)cc4N3)C2=O)cc1 (stereo not drawn),i,0.6,2.2,-6.5%,-3.7,0.655,2.2
CCN(c1ccccc1)S(=O)(=O)c1cccc(C(=O)NCC(c2ccc(OC)cc2)N2CCCCC2)c1 (stereo not drawn),i,6.2,.,2.3%,9.8,.,.
COc1ccccc1C#Cc1cnc2c(c1)C(=O)N([C@H](C)CO)C[C@@H](C)[C@@H](CN(C)C(=O)c1ccc3c(c1)OCO3)O2,i,4.8,.,-1.5%,-8.0&0.2,.,.
O=C(CSc1nnnn1C1CCCCC1)NCc1cccs1,i,-2.5,-0.9,5.7%,-1.2,0.691,2.8
O=C(c1cccc(N2CCCC2=O)c1)N1CCN(c2ccc(F)cc2)CC1,i,-0.2,0.7,1.4%,1.5,0.705,2.8
Cc1cccc(CN2CCN(C3CCCC3)C(CCO)C2)n1 (stereo not drawn),i,-0.3,8.5,.,-0.8,0.684,2.7
CCn1c(SCC(=O)Nc2ccccc2N2CCOCC2)nnc1-c1ccccc1,.,-4.6,0.5,28.1%,.,0.686,0.9
# Next structures:
SMILES,FGF22 binding,HNF4A DNA FP,RanGTP-Imp inh,Vif TR-FRET,MLL AF4-AF9 inh,Ecoli growth,UCH37 DUB inh
Cc1cc(=O)oc(C)c1C(=O)NCCNC(=O)c1c(C)cc(=O)oc1C,.,-0.9,-0.4,-1.8%,.,0.708,-0.3
CSc1ccccc1NC(=O)C1(C)CCN1C(=O)Cc1ccccc1Cl (stereo not drawn),i,-1.2,.,.,0.9,.,.
CNC(=O)c1nnn(Cc2ccccc2)c1NC(=O)C(F)(F)F,.,6.4,0.7,31.9%,.,0.725,2.9
COC(=O)c1cn(C(=O)c2cc(OC)c(OC)c(OC)c2)c2ccccc12,i,1.7,5.4,9.9%,0.1,0.719,0.2
COC(=O)c1ccc(COc2cccc3c2CCN(Cc2cccc(C)c2)C3=O)o1,i,1.3,0.9,.,0.7,0.719,1.5
O=C(Nc1ccc(N2C(=O)C3C4C=CC(C4)C3C2=O)cc1)Nc1nncs1 (stereo not drawn),i,0.8,-2.6,.,4.0,0.697,5.3
Nc1c(N=Nc2ccccc2F)c(=O)[nH]n1-c1ccccc1,.,-1.5,-2.6,-2.6%,.,0.692,4.8
Cc1ccc(-n2nc3ccc(N)cc3n2)c(C)c1,i,3.1,1.5,.,0.8,0.695,i
C=CCN(CC=C)C(=O)c1cccc(OC2CCN(CC(C)(C)C)CC2)c1,i,0.7,?,.,0.4,0.65,-1.4
CCCc1cc(=O)[nH]c(Nc2ccc(O)cc2)n1,.,-2.1,1.7,19.2%,.,0.701,1.4
Cc1cc(C)cc(-c2nnc(SCC(=O)NCC3CCCO3)o2)c1 (stereo not drawn),i,-0.1,.,.,9.8,.,.
O=C(ONC1=NCCCCC1)c1ccc(Cl)cc1,.,1.1,0.4,-0.3%,.,0.675,6.1

# Assay outcomes: PubChem, several laboratories
